Calb FLC – C. albicans growth modulation with fluconazole | C. albicans CaCi-2 (fluconazole-resistant clinical isolate) + fluconazole, Alamar Blue growth, 48 h | growth inhibition, % (concentration not given with the values) | 300,000 tested, 0.57% active | AID 1979;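 active = most replicates above 75%; inconclusive = exactly half above 75%; inactive = most below 75%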;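 also: all wells also contain fluconazole at 8 µg/ml as a sub-toxic cotreatment; 0% = median of DMSO wells and 100% = median of geldanamycin control wells; wells of about 8 µL received 7.5 nL stock; the first replicate is given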
Beta cell apopt – beta cell apoptosis inhibition. AID 435005. INS-1E cytokine-induced death, ATP luminescence, 48 h; percent of positive-control rescue, neutral wells zero. protection from apoptosis, % (no concentration beside the values). 300,000 tested, 0.8% active;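 active = all replicates at 75% or more, or half of them and the mean; inconclusive = half reach 75% but not the mean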;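 also: 0% = cytokine-treated negative control wells and 100% = positive control rescue; higher means more ATP so stronger rescue from cytokine killing; wells of about 40 µL received 100 nL stock; the first replicate is given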
T cruzi inh – blocks replication of Trypanosoma cruzi. inhibition, % (test concentration not listed). T. cruzi beta-gal in NIH3T3, luminescence, 90 h. AID 1885. 300,000 tested, 1.4% active;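 active = mean inhibition across valid replicates above about 55%, limit read from the data; inconclusive = mean below that limit but half or more replicates reach it; inactive = mean below it, under half of replicates reach it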;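 also: signal also drops with host cell toxicity which is not excluded here; 0% = plate median of DMSO wells and 100% = zero luminescence signal; higher percent means less beta-gal luminescence so fewer parasites; stock transfer was 50 nL into about 50 µL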
RanGTP-Impb inh – inhibitors of RanGTP-importin-beta interaction, primary screen, biochemical, FRET, CFP-Ran, YFP-importin-beta, homogeneous; cell-free CFP-Ran/YFP-importin-beta FRET ratio; inhibition, % (concentration not given with the values); 300,000 tested, 1.1% active;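 active = most replicates above 15%; inconclusive = exactly half above 15%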;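 also: 0% = DMSO wells and 100% = Ran loaded with GDP instead of GTP; wells of about 40 µL received 100 nL stock; the first replicate is given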
Bfl-1 A1 inh – inhibitors of the anti-apoptotic protein A1, read as caspase activation; MEF A1-2A-BIM cells, Caspase-Glo 3/7 luminescence, 3 h; percent of clofoctol response, vehicle zero; caspase activation, % (test concentration not listed); 330,000 tested, 0.066% active; AID 2462;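 active = over half of replicate activation scores above 10%, or exactly half above 10 with the replicate mean above 10; inconclusive = replicate mean below 10 yet half the replicates above 10; inactive = over half of replicates below 10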;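 also: wells of about 30 µL received 50 nL stock; many hits fall short of the cut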
Beta2AR agonist – agonists of human beta-2 adrenergic receptor inducing internalization; 340,000 tested, 0.43% active; P07550; Am2.2-beta2AR cells, FAP receptor internalization, flow cytometry; reference of the scale not given here; response, % (no concentration beside the values); AID 504454;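 active = response above a set limit, near 3 SD of response in nonfluorescent compounds, cut at about 42% in these data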;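 also: stock transfer was 100 nL into about 11 µL; a reference agonist was the positive control; negative values mostly stem from fluorescent compounds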
Target sequence (P07550 whole entry, looked up): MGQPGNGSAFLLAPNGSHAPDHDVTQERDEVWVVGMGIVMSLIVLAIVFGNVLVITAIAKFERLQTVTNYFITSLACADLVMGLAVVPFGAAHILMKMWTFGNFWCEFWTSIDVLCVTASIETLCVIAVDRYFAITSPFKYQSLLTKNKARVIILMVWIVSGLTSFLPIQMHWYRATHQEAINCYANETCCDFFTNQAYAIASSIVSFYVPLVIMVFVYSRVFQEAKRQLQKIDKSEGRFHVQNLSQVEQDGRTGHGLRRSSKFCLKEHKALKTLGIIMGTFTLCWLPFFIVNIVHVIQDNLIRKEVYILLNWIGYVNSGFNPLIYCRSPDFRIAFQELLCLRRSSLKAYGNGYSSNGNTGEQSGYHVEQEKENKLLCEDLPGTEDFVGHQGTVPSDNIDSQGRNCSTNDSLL
UCH37 DUB inh – human UCH37 deubiquitinating enzyme inhibition. Q9Y5K5. purified proteasome/UCH37, Ub-AMC cleavage fluorescence. inhibition, % (concentration not given with the values). 330,000 tested, 0.33% active;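 active = mean of two replicates above 20%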;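 also: 0% = compound-free wells with enzyme and 100% = wells lacking proteasome; stock transfer was 100 nL into about 20 µL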
Target sequence (Q9Y5K5 whole entry, looked up): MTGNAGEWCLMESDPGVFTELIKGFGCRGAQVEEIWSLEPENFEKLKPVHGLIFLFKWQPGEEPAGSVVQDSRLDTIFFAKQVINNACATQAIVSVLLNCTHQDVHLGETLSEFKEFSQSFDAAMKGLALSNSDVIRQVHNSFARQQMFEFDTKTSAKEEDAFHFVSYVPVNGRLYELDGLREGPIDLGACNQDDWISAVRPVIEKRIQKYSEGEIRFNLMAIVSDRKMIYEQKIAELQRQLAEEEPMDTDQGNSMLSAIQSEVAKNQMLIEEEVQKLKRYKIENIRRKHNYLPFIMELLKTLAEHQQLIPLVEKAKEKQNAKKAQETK
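Signal – fluorescence, ex 355 nm, em 460 nm · System – Proteasome-bound UCH37 · Input – 0.15 nM proteasome as dispensed · Timing – 30 min preincubation with enzyme, 25 min cleavage at room temperature · Read-out basis – percent inhibition of cleavage signal versus uninhibited and no-proteasome wells · Medium – Tris-HCl pH 7.4 with ATP-MgCl2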
LANA-H2A inh – blocks KSHV LANA binding to histone H2A/H2B; inhibition, % (concentration not given with the values); 320,000 tested, 0.6% active; cell-free LANA-H2A/H2B peptide, fluorescence polarization; in the data active = inhibition mostly above about 10%, no sharp cut-off; inactive = mostly below about 6.7%;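 also: stock transfer was 7.5 nL into about 10 µL; 0% = median of vehicle wells and 100% = median of positive control wells; one replicate is shown; the record names a cut of 25% in any replicate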
An asterisk follows results filed as active; i = inactive; ? = inconclusive; · = no result given.

structure	Calb FLC	Beta cell apopt	T cruzi inh	RanGTP-Impb inh	Bfl-1 A1 inh	Beta2AR agonist	UCH37 DUB inh	LANA-H2A inh
CC(C)OCCCNC(=O)c1cccs1	-7	0	-31	-11	0.6	-11	0.9	9.1
COc1ccc(S(=O)(=O)N2CCOCC2)cc1NC(=O)COC(=O)CCOc1ccc(C)cc1	-1	-3	-7	3.7	0.5	-9	0.7	·
CCOC(=O)C1CCCN(C(=O)c2ccc(C)cc2O)C1 (configuration not stated)	5	-4	0	0.2	0.3	11	2.3	7.4
Cc1nc2c(c(=O)c3ccccc3n2C)c(=O)n1C1CCCCCC1	1	·	5	6.1	-0.7	-9	-0.8	3.1
Oc1ccc(C[C@@H]2CNC(=S)N2CCCCC2CCCCC2)cc1	-16	-3	33	0.3	0.6	-13	·	-1.7
CCOc1ccc(C(=O)Nc2cc(C)on2)cc1OCC	11	5	-2	0.4	0.4	16	0.3	2.3
O=C(NCCN1CCN(c2ccccc2Cl)CC1)Nc1ccccc1	-7	·	13	3.7	0.0	-5	1.8	-0.6
Cc1cc(C)cc(Nc2ncnc3nc[nH]c23)c1	-9	-3	-11	0.8	-6.5	-6	-1.4	3.3
Cc1n[nH]c(=S)c2nn(-c3cccc(Cl)c3)c(C)c12	17	·	-2	-39	·	·	2.6	·
CC(=O)c1sc2nsc(SCCN3CCOCC3)c2c1N	-3	-6	-7	-24	1.3	5	6.8	4.0
COc1cc(S(=O)(=O)NCCCN2CCOCC2)ccc1-n1cnnn1	-16	-14	-9	1.9	0.0	-4	2.6	-2.7
O=C1CCCN2N=C(SCC(=O)Nc3nccs3)SC2=N1	2	-5	-9	-1.0	1.0	-1	2.6	-6.8
Cc1nc2ccc(S(=O)(=O)NCC(=O)NCCN3CCCCC3C)cc2s1 (configuration not stated)	6	-6	-9	4.1	0.2	4	-2.8	3.4
Cc1ccc2c(c1)N(CC(=O)NC1CCCC1)C(=O)c1cccnc1O2	1	-5	-1	-1.7	0.6	-9	5.2	-8.0
CSc1ccc(NC(=O)NCCCN2CCC(Cc3ccccc3)CC2)cc1	-1	10	10	0.6	0.2	18	5.4	-4.4
CCCNc1nc(Cl)nc(NCc2cccnc2)n1	-3	0	·	-2.0	-0.5	-6	3.8	-0.2
O=C(C1CC(c2ccc(F)cc2)=NO1)N1CCc2ccccc2C1 (configuration not stated)	7	2	-2	4.4	0.2	2	3.3	3.3
O=C(O)c1ccc(NC(=O)C2CCCCC2)cc1	0	-1	-12	?	-0.2	3	1.9	-3.7
CCOc1ccccc1-n1c(SCC(N)=O)nnc1-c1cccnc1	8	0	0	3.4	-0.7	2	5.2	1.4
CCOC(=O)N1CCN(C(c2ccc(C(C)C)cc2)c2sc3nc(C)nn3c2O)CC1 (configuration not stated)	1	-1	9	3.9	0.7	-3	5.1	-1.0
S=C(NCc1cccc(Cl)c1)NCc1ccco1	2	-5	-15	?	0.6	-3	-0.9	-1.0
CCOC(=O)N1CCC(n2c(SCC(=O)OCc3ccccc3)nc3ccsc3c2=O)CC1	-1	-1	39	5.6	0.6	3	0.1	4.4
CC(=O)c1ccc(NC(=O)COC(=O)CCC2CCCC2)cc1	·	0	·	·	-0.1	6	-2.3	5.7
NC(=O)C1CCN(C(=O)COc2ccc3ccc(=O)oc3c2)CC1	-3	3	-2	?	0.0	21	-35	4.0
CSCCC(NC(=O)c1ccc(Cl)cc1Cl)C(=O)OC1CCCCC1=O (configuration not stated)	-4	·	-15	-0.6	-0.2	-5	-0.2	4.0
CCc1nnc(NC(=O)CSc2nnc(-c3ccco3)n2C)s1	3	-9	-21	-3.9	0.9	-15	5.1	-0.3
COc1ccccc1NC(=S)N(CCCN1CCOCC1)Cc1ccccn1	-18	2	-11	-2.3	-0.5	-3	0.9	-1.1
N#Cc1cccc(NC(=O)CCn2ccnc2)c1	-16	-4	0	-0.6	-0.2	-1	-0.3	1.9
COc1cc(C(=O)Nc2cc(OC)c(OC)c(OC)c2)ccc1OCc1c(C)noc1C	·	0	·	·	-0.5	2	0.0	6.4
Cc1cnn(CCC(=O)NNC(=S)Nc2ccc(F)cc2)c1	0	1	-6	-1.9	0.5	5	1.5	3.6
O=[N+]([O-])c1ccc(N2CCCCC2)cn1	0	-7	-22	-2.2	-0.4	-2	8.8	-4.9
COCCn1c(C)cc(/C=C2/SC(=O)N(CC(=O)N3CCCC3)C2=O)c1C	-3	-6	-2	-6.3	0.1	-5	11	0.9
CCN(CCN(C)C)C(=O)c1ccc2c(c1NCCO)C(=O)c1ccccc1C2=O	23	13	12	0.0	0.3	5	8.0	-4.5
CC(=O)N1CCN(C(=O)c2cc3ccccc3o2)CC1	8	-6	-12	2.4	-1.4	11	1.5	6.5
CC(C)n1ncc(C(N)=O)c1N	-2	-3	-7	-1.8	0.1	4	0.8	1.0
COCC(=O)NC1CCN(C(=O)Nc2ccc(Br)cc2)CC1	-3	-1	-19	3.6	0.5	5	1.5	-5.0
CC(Sc1ncnc2ccccc12)C(=O)Nc1ccc2c(c1)OCO2 (configuration not stated)	-3	4	1	-4.7	1.9	-2	2.4	6.3
CCCC(NC(=O)COc1cc2c(c3oc(=O)cc(C)c13)CCC(C)(C)O2)C(=O)O (configuration not stated)	0	-6	4	2.8	0.4	-15	i	3.1
Cn1ccc(=Nc2ccc(NC(=O)c3ccc(N=c4ccn(C)c5ccc([N+](=O)[O-])cc45)cc3)cc2)cc1	·	61	33	-3.2	-0.6	1	28*	-3.4
COc1ccc(C2C3=C(CC(C)(C)CC3=O)Nc3c2c(=O)[nH]c2nc(C)nn32)cc1 (configuration not stated)	15	-2	-7	46*	-0.2	-5	-29	2.8
CCCC(=O)Nc1c2c(nn1-c1ccc(C)cc1)CS(=O)(=O)C2	5	2	-2	-0.9	1.4	-9	1.6	3.3
CCOC(=O)c1ccccc1NC(=O)COC(=O)CN1C(=O)NC2(CCCC2)C1=O	3	·	-5	-2.1	-0.5	3	·	-24
Cc1ccc(C(=O)NCC(=O)OCC(=O)c2ccc(Br)s2)cc1	1	-3	-2	-1.7	0.4	-3	1.2	4.0
Fc1ccc(/C=N/N2CCOCC2)c(F)c1	-11	-6	1	-0.4	-0.8	3	·	-14
CCCOc1cccc(C(=O)O)c1	-4	-7	-6	-1.9	0.6	-10	3.4	-0.4
COC(=O)c1onc(C(=O)c2ccccc2)c1C(=O)OC	15	0	1	-1.4	0.5	12	4.6	-0.6
Cc1c(C(=O)Nc2ccc3nc(N4CCOCC4)sc3c2)oc2ccccc12	·	26	·	·	0.9	20	-8.7	-1.1
O=[N+]([O-])c1cccc(CP(=O)(c2ccccc2)c2ccccc2)c1	·	-3	·	·	0.0	-8	-1.7	-1.0
CCOc1ccc(-c2ccc3nnc(SCC(=O)NCC4CCCO4)n3n2)cc1 (configuration not stated)	6	·	-2	3.0	1.9	-10	-96	4.2
NCCCC[C@H]1CN=C(N)N1CC1CCCCC1	-2	0	-2	-3.2	-0.1	6	4.0	0.5
O=C(NC1CC2CCCC(C1)N2C(=S)Nc1ccc(Cl)cc1)C1CC1 (configuration not stated)	-4	·	3	3.0	-0.4	-1	6.0	-1.4
Cn1c2c(c(=O)[nH]c1=O)C(c1ccc(O)cc1)C1=C(N2)c2ccccc2C1=O (configuration not stated)	25	7	-10	5.8	0.7	-3	6.5	1.9
COc1cc(CC(=O)OCC(=O)NCc2ccco2)cc(OC)c1OC	·	0	·	·	-0.7	4	5.4	-8.5
CC(Sc1nnc2ccccn12)C(=O)Nc1ccc2c(c1)OCO2 (configuration not stated)	-16	8	-8	-2.5	0.2	10	-1.5	-5.1
CC(=O)N1CCN(C(=O)CCc2nnc(CCCCc3ccccc3)o2)CC1	-14	-1	·	1.8	0.5	0	-1.0	-6.3
O=C(CSc1ccc(Cl)cc1)N/N=C/c1cccnc1	-9	3	-10	-0.7	-0.1	-6	·	3.3
O=C(Nc1ccc2ccccc2c1)c1cc(F)c(F)cc1Cl	7	2	0	3.5	-1.5	-13	4.8	-0.5
Cc1cccc(-n2c(C)nc3cc(C(=O)N4CCOCC4)ccc32)c1	26	-4	2	-0.7	0.6	-2	1.5	2.6
COc1ccc(NC(=O)N(Cc2cccs2)Cc2cc3cc4c(cc3[nH]c2=O)OCO4)cc1	-1	-1	23	-5.8	-1.0	·	·	-1.6
COc1ccc(/C(C#N)=C/c2cccnc2)cc1	2	·	-13	1.1	·	3	·	·

(more compounds)
structure	Calb FLC	Beta cell apopt	T cruzi inh	RanGTP-Impb inh	Bfl-1 A1 inh	Beta2AR agonist	UCH37 DUB inh	LANA-H2A inh
Cc1c(Cl)ccc(S(=O)(=O)NCCCn2ccnc2)c1Cl	15	2	-14	2.9	1.5	-9	3.1	0.9
CC(=O)c1ccc(OCC(=O)N2CCN(S(=O)(=O)c3ccc(C)cc3C)CC2)cc1	6	3	12	-0.3	0.3	4	-1.6	3.7
COc1ccc(-c2nc3ccccc3c(=O)[nH]2)cc1	-10	·	-10	3.7	-5.4	-11	-17	-1.0
CC(C)(C)NS(=O)(=O)c1ccc(CCC(=O)NCc2ccc3c(c2)OCO3)cc1	-17	1	10	1.3	0.6	-7	-1.1	-6.7
N#CCC1c2ccccc2CCN1C(=O)Nc1cccc(C(F)(F)F)c1 (configuration not stated)	-15	3	-11	1.4	1.0	3	0.7	-4.3
CCOc1ccc(NC(=O)CSC2=C(C#N)C(c3ccc4c(c3)OCO4)CC(=O)N2)cc1 (configuration not stated)	-4	4	13	-2.6	0.6	3	2.5	1.4
O=S(=O)(Nc1ccc(-c2csc(-c3ccccc3)n2)cc1)c1ccc(F)cc1	-1	17	68*	-2.4	2.4	-2	2.5	2.3

Assay outcomes: PubChem, several laboratories
